Screening data: PubChem BioAssay, National Center for Advancing Translational Sciences (NCATS)
VACV Venus inh: vaccinia inhibition (Venus reporter); Vaccinia virus Venus reporter expression, fluorescence; 0.46% of 330,000 active; AID 720580; Potency, µM (highest dose often 36.5 µM), for the others: at the highest dose activity change, negative = inhibition, usual class: inhibitors; active means well fitted inhibition curve with a large enough effect; inconclusive means small, poorly fitted or top-dose-only effect; inactive means no such curve, though single readings can be large or run the other way; tested in A549 cells; further: nearly all actives have a fitted effect of over 30% in size; inactives centre near -10
Vaccinia mCherry: inhibitors of vaccinia virus infection (mCherry reporter signal) | 0.63% of 310,000 active | AID 720579 | Potency, µM (series often up to 36.5 µM), for inactives: at the highest dose activity change, negative = inhibition, usual class: inhibitors | Vaccinia virus mCherry reporter infection, fluorescence; about a quarter of the inactives have no number; active = well fitted inhibition curve with a large enough effect; inconclusive = small, poorly fitted or top-dose-only effect; inactive = no such curve, though single readings can be large or run the other way; tested in A549 cells; further: nearly all actives have a fitted effect of over 35% in size; inactives centre near -10
Numbers without * were called inactive; i = inactive; ? = inconclusive; · = no result given; & = joins results of further samples. On the % scale 0 is the no-effect control and ±100 the full control effect; potency means the concentration at half of the fitted maximal effect.

SMILES	VACV Venus inh	Vaccinia mCherry
COc1ccccc1OCCCCn1c(C2CC(=O)N(c3ccccc3Cl)C2)nc2ccccc21 (centres undefined)	-3%	-3%
O=[N+]([O-])c1ccc(N2CCOCC2)cc1NCc1ccccc1	-23%	·
COc1ccc(CCN2CC(C(=O)O)CC2=O)cc1 (centres undefined)	-12%	i
Cc1cc(C)cc(SCc2noc(C(=O)NCc3ccccc3)c2C(=O)NCc2ccccc2)c1	-11%	i
CC1CCC2(CC1)NC(=O)N(CC(=O)Nc1nc(-c3ccc(F)cc3)cs1)C2=O (centres undefined)	-18%	·
COc1ccc(C(=O)/C(=C\N(C)C)n2nc(C)cc2C)cc1	-8%	-24%
O=C1[C@H]2[C@@H](c3ccc(Cl)cc3)N3C(=O)N(c4cccc(F)c4)C(=O)[C@@]3(Cc3ccc(Cl)cc3)[C@H]2C(=O)N1C1CCCCC1	-19%	-8%
COc1ccc(F)cc1S(=O)(=O)N1CCCCC1	-5%	-9%
O=C(c1ccco1)N1CCN(c2nc3ccsc3c(=O)s2)CC1	1%	-1%
Cc1cccc(C(=O)Nc2ccc(S(=O)(=O)N(Cc3ccccc3)c3ccccc3)cc2)c1	-10%	-16%
CCCc1cc(=O)n2[nH]c(-c3ccc(OC)cc3)nc2n1	-13%	·
O=C(Nc1ccc(F)cc1)c1cnccn1	-6%	i
CCOc1ccc(-c2ccc(SCc3ccccn3)nn2)cc1	-10%	-7%
Cc1c(C(=O)N2CCN(c3ccccc3)CC2)oc2c1C(=O)CC(C)(C)C2	-11%	-1%
CCOC(=O)N1CCN(C(=O)CCn2c(=O)[nH]c3ccsc3c2=O)CC1	14%	-24%
COC(=O)c1sc2cccc(F)c2c1S(=O)(=O)Nc1cc(OC)cc(OC)c1	0%	-10%
Cc1ccc(S(=O)(=O)NN=Cc2ccco2)cc1	3%	-6%
Cc1c(N(C)CS(=O)(=O)O)c(=O)n(-c2ccccc2)n1C	-11%&-3%	-14%
Cc1nn(-c2ccccc2)c(N)c1C1(O)C(=O)N(C(C)C)c2ccccc21 (centres undefined)	-5%	i
Cc1cc(C)cc(N(CCC#N)C(=O)CSc2nc3ccccc3c(=O)[nH]2)c1	-15%	i
O=C(Nc1ccc(Cl)c(C(F)(F)F)c1)c1ccncc1	-14%	-13%
O=C(CNC(c1ccccc1)c1ccccc1)Nc1ccccc1F	-11%	-14%
O=C(c1ccncc1)C12CN3CN(CN(C3)C1)C2	-1%	-9%
O=S(=O)(c1ccccc1)N1CCN=C1SCc1cccc(Cl)c1	-7%	-10%
Cc1ccc(S(=O)(=O)CC(=O)Nc2nc3c(C)cccc3s2)cc1	-6%	-9%
Cc1ccc(Cn2c(C3CCCN3c3nc(-c4ccc(F)cc4)cs3)nc3cc(Cl)c(Cl)cc32)cc1 (centres undefined)	-7%	-11%
CCOc1ccc(N=Cc2c(O)n(Cc3ccccc3)c(=S)[nH]c2=O)cc1	-12%	-3%
O=C(Cc1cccs1)N1CCN(S(=O)(=O)c2cc(Cl)ccc2Cl)CC1	-14%	-21%
COc1ccc(C2C(C(=O)OC(C)C)=C(C)N=c3s/c(=C\c4cccs4)c(=O)n32)cc1 (centres undefined)	-7%	·
COc1ccc(-n2nc(-c3ccc(C)cc3)c3cnc4cc(F)c(F)cc4c32)cc1	-4%	-2%

Fetched by structure from the entries so far (seven):
SMILES	VACV Venus inh	Vaccinia mCherry
O=C(Nc1ccc(Cl)c(C(F)(F)F)c1)c1ccncc1	-14%	-13%
Cc1ccc(Cn2c(C3CCCN3c3nc(-c4ccc(F)cc4)cs3)nc3cc(Cl)c(Cl)cc32)cc1 (centres undefined)	-7%	-11%
COc1ccc(-n2nc(-c3ccc(C)cc3)c3cnc4cc(F)c(F)cc4c32)cc1	-4%	-2%
CCOc1ccc(N=Cc2c(O)n(Cc3ccccc3)c(=S)[nH]c2=O)cc1	-12%	-3%
Cc1ccc(S(=O)(=O)CC(=O)Nc2nc3c(C)cccc3s2)cc1	-6%	-9%
COc1ccc(C2C(C(=O)OC(C)C)=C(C)N=c3s/c(=C\c4cccs4)c(=O)n32)cc1 (centres undefined)	-7%	·
O=C(c1ccncc1)C12CN3CN(CN(C3)C1)C2	-1%	-9%

3 successive entries out of the list so far, quoted:
SMILES	VACV Venus inh	Vaccinia mCherry
CCOc1ccc(N=Cc2c(O)n(Cc3ccccc3)c(=S)[nH]c2=O)cc1	-12%	-3%
O=C(Cc1cccs1)N1CCN(S(=O)(=O)c2cc(Cl)ccc2Cl)CC1	-14%	-21%
COc1ccc(C2C(C(=O)OC(C)C)=C(C)N=c3s/c(=C\c4cccs4)c(=O)n32)cc1 (centres undefined)	-7%	·

The list continues:
SMILES	VACV Venus inh	Vaccinia mCherry
Cc1cccc(NC(=O)c2nc[nH]c2C(=O)Nc2cccc(C)c2)c1	-12%	i
CCN1C(=O)[C@@H]2[C@@H](c3ccc(-c4ccc(Cl)c(Cl)c4)c(OC)c3)N3CCCC[C@@]3(C(=O)OC)[C@@H]2C1=O	-28%	-1%
COc1ccc([C@H]2N[C@]3(CCCN(Cc4cccn4C)C3=O)[C@H]3C(=O)N(C)C(=O)[C@@H]23)cc1	-13%	?
C=CC(=O)OCCO	-9%	-16%
O=C1[C@@H]2[C@H](C(=O)N1n1cnnc1)[C@H]1C=C[C@@H]2C1	-9%	·
O=C(/C=C\c1ccc(-c2ccccc2)o1)c1ccccc1	-17%	-14%
O=C(COC(=O)Cc1ccc(Br)cc1)NC1CC1	-6%	i
C/C(=C1/SC(N2CCCC2)=NC1=O)c1ccc(Br)cc1	-9%	·
Cc1ccc(C(=O)Oc2ccccc2C(=O)N2CCOCC2)cc1	-5%	i
CSCCC(=O)N1CCC(n2nccc2NC(=O)CCc2ccccc2)CC1	-8%	i
CC12CC3(C)CC(C)(C1)CC(C(=O)NCC(=O)O)(C2)C3	-7%	i
C/C(=N\NC(N)=O)c1cc(Cl)cc(Cl)c1O	-1%	-14%
COc1ccc(-c2nc(C#N)c(NCCCN(C)C)o2)cc1OC	-9%	-6%
O=C1CN(C(=O)c2ccccc2Cl)c2ccccc2N1	-14%	i
COc1ccc(CN2C(=O)C(CC(=O)NCc3ccco3)CC(C(=O)N3CCOCC3)=C2C)cc1 (centres undefined)	-9%	3%
CSCCC(NC(=O)c1ccccc1Br)C(=O)N1CCCCCCC1 (centres undefined)	5%	-14%
N#CCSc1n[nH]c2nc3c(c(=O)n12)C1(CCCC1)Cc1ccccc1-3	-5%	·
CCOC(=O)CC(=O)Nc1ccsc1C(N)=O	3%	-7%
O=C(NCCNC(=O)c1cccnc1)c1ccc(Br)cc1	-13%	-7%
O=C(c1cccs1)N1CCN(c2nnc(-c3ccccc3)c3ccccc23)CC1	-22%	-29%
O=C(c1ccccc1)N1CCN(C(=O)c2ccccc2)C1c1ccccc1	10%	·
O=C1CCCc2c1nc(-c1ccc(F)cc1)n2O	-5%	-11%
COc1ccc(/C=C/C(=O)OCC(=O)N2c3ccccc3CC2C)cc1 (centres undefined)	-24%	-6%
COc1cccc(-c2cnc3c(NC=O)cc(-c4cc(C)c(O)c(C)c4)cn23)c1	-25%	?
CN(Cc1ccccc1)S(=O)(=O)c1ccc(Cl)c(C(=O)NCCCN2CCCC2=O)c1	-16%	i
CC(=O)Nc1ccc(OCC(=O)N2CCC(Cc3ccccc3)CC2)cc1	-1%	2%
CC1(c2ccco2)NC(=O)NC1=O (centres undefined)	?	-11%
CCN(CC)C(=O)CSc1nnc(-c2ccc(F)cc2)n1N	-10%	·
CC(=O)Nc1ccc(NC(=O)CN(C)S(=O)(=O)c2ccc3nc(C)sc3c2)cc1	-3%	-14%
CCOC(=O)C1CCN(Cc2ccc(F)cc2F)CC1	-4%	i
CCOc1cc(-c2nc(-c3ccc(-c4ccc(C)cc4)nc3OC)no2)cc(OCC)c1OCC	1%	0%
COc1ccc(N2C(=O)CN=C2Nc2cccc(C)c2C)cc1OC	-8%	-7%
Cc1c(C(=O)c2ccc(N(C)C)cc2)c2ccccn2c1CCC#N	-18%	i
COc1ccc(C2C3=C(CC(C)(C)CC3=O)Oc3ncn(CC(C)C)c(=N)c32)cc1 (centres undefined)	-17%	·
Cn1c(Cn2c(=O)sc3ccccc32)nnc1SCc1cccc(F)c1	0%	-7%
O=C1C(C=NCCN2CCOCC2)=C(O)c2ccccc21	-9%	-23%
CCc1nc(Oc2cccc(F)c2)c2oc3ccccc3c2n1	-2%	-4%
Cc1ccc(S(=O)(=O)N2CCN(C(=O)COC(=O)Cc3ccccc3)CC2)c(C)c1	4%	-14%
CC(CCc1ccccc1)NC(=O)Cn1ncc2c3ccccc3n(Cc3ccccc3)c2c1=O (centres undefined)	4%	-10%
NC(=O)c1ccccc1Nc1nc2nc3ccccc3c(=O)n2cc1Br	-13%	-14%
C/C(Cn1nnc([N+](=O)[O-])n1)=N\NC(=O)c1ccc(O)cc1O	?	?
O=C(COC(=O)c1cccc(OC(F)F)c1)NC1CCCC1	-15%	i
CC(=O)c1ccc(OCCCCCCCOc2ccc(C(C)=O)cc2)cc1	-8%	-29%
Cc1nc2ncccn2c1-c1csc(Nc2ccc(O)cc2)n1	?	?
O=C(Cn1c(NCCO)nc2ccccc21)Nc1ccc2c(c1)OCCCO2	-5%	-13%
CN(C)c1ccc(C2CC(c3c(O)n(C4CCCCC4)c(=O)[nH]c3=O)=Nc3ccccc3S2)cc1 (centres undefined)	14%	-14%
Cc1csc(=O)n1CCC(=O)O	-4%	-5%
Nc1c(-c2ccc(Cl)cc2)cnc2c(-c3ccccc3)cnn12	-7%	-7%
COc1ccc(C2=NOC(Cn3nc(-c4ccccc4C)cc3C(=O)O)C2)cc1 (centres undefined)	-18%	i
Cn1nnnc1SCCNC(=O)C1CCC(=O)N(CCc2ccccc2)C1 (centres undefined)	-9%	-11%

Entries of single compounds from above. Screens in order: VACV Venus inh, Vaccinia mCherry
Entry for `COc1ccc(C2=NOC(Cn3nc(-c4ccccc4C)cc3C(=O)O)C2)cc1` (centres undefined) = -18%, i
Entry for `CC(=O)c1ccc(OCCCCCCCOc2ccc(C(C)=O)cc2)cc1` = -8%, -29%
Entry for `Nc1c(-c2ccc(Cl)cc2)cnc2c(-c3ccccc3)cnn12` = -7%, -7%
Entry for `O=C(Cn1c(NCCO)nc2ccccc21)Nc1ccc2c(c1)OCCCO2` = -5%, -13%

(continued)
SMILES	VACV Venus inh	Vaccinia mCherry
CCN(CC)C(=O)[C@H]1C[C@H](CC(=O)NCCC2=CCCCC2)C(=O)N2CCc3c([nH]c4cc(CCC(=O)N(C)C)ccc34)[C@]12C	-8%	-10%
Cc1nc2ccccc2n1CCc1nc2c3ccccc3nc(SCc3cccc(F)c3)n2n1	?	?
CCOC(=O)CN(C)C(=O)c1cnn(-c2ncc3c(n2)-c2ccccc2CCC3)c1C	-8%	-9%
CCc1nnc(NC(=O)c2ccc3c(c2)C(=O)N(CC)C3=O)s1	-11%	-13%
COc1ccc(Cl)cc1NC(=O)Cn1cnc2sc(C)c(S(=O)(=O)N3CCN(c4ccccc4OC)CC3)c2c1=O	-16%	-6%
O=C(Nc1ccccn1)C(=O)N1CCCCC1	-10%	-10%
COc1ccc2c(COC(=O)[C@@H]3CCCN3S(=O)(=O)c3ccc(Cl)cc3)cc(=O)oc2c1	-10%	i
Cc1nonc1NC(=O)CSc1nc2ccc(Cl)cc2[nH]1	1%	-9%
COC(=O)Cc1cc(=O)[nH]c(/N=C(\N)Nc2ccc(C(C)C)cc2)n1	-2%	-2%
Cc1cc(NC(=O)COC(=O)c2nccnc2N)n(-c2ccccc2)n1	9%	-15%
CCCSc1nc2c([nH]1)c(=O)n(C)c(=S)n2C	-6%	i
CCOc1c2ccc(C(=O)NCc3ccc(C)cc3)cc2nn1CC	-7%	-8%
Cc1cc(-c2cc(-c3ccccc3)on2)nc(NC2CCCC2)n1	-23%	?
C/C(Cn1nnc([N+](=O)[O-])n1)=N\NC(=O)c1ccc(C)cc1	?	?
